# Source: PubChem (several laboratories)
# Beta2AR agonist – beta2AR agonists driving receptor internalization, primary screen, cell-based, FAP fluorogen, flow cytometry; actives 0.43% (n = 340,000); response, % (test concentration not listed); Am2.2-beta2AR cells; reference of the scale not given here;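 active = response above a set limit, near 3 SD of response in nonfluorescent compounds, cut at about 42% in these data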;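 note: stock transfer was 100 nL into about 11 µL; a reference agonist was the positive control; negative values mostly stem from fluorescent compounds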
# Target sequence (P07550 whole entry, looked up): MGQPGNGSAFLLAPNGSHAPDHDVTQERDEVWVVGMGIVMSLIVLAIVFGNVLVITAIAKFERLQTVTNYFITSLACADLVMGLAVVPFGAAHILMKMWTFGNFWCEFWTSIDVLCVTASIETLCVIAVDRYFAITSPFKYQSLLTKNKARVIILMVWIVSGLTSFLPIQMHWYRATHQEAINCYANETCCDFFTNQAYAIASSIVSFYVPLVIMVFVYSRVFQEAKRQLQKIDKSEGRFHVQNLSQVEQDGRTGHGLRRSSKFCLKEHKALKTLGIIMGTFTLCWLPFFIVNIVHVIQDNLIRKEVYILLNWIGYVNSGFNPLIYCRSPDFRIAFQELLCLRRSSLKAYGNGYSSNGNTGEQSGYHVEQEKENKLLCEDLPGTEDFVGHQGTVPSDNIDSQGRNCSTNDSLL
# Calb FLC – C. albicans growth inhibition with fluconazole, primary screen, CaCi-2 strain, Alamar Blue fluorescence | C. albicans CaCi-2 (fluconazole-resistant clinical isolate) + fluconazole, 48 h | growth inhibition, % (test concentration not listed) | actives 0.57% (n = 300,000);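 active = most replicates above 75%; inconclusive = exactly half above 75%; inactive = most below 75%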;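 note: all wells also contain fluconazole at 8 µg/ml as a sub-toxic cotreatment; 0% = median of DMSO wells and 100% = median of geldanamycin control wells; wells of about 8 µL received 7.5 nL stock; the first replicate is given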
# ALR inh – inhibitors of human ALR sulfhydryl oxidase, primary screen, biochemical, H2O2 detection, HRP-luminol luminescence, single point; FAD-linked sulfhydryl oxidase ALR (Homo sapiens), P55789; purified ALR, DTT oxidation; inhibition, % (no concentration beside the values); actives 3.8% (n = 290,000); AID 485317, 2010;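 active = mean and each replicate at 75% or more; inconclusive = only one of the two met; inactive = neither met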;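 note: stock transfer was 7.5 nL into about 7.5 µL; 0% = neutral wells and 100% = wells with inactivated enzyme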
# Target sequence (P55789 whole entry, looked up): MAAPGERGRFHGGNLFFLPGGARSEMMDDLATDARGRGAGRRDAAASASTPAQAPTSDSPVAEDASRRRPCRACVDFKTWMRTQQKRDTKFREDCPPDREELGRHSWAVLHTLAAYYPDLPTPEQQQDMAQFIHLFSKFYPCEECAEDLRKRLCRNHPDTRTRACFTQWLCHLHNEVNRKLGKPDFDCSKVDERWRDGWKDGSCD
# HNF4A DNA FP – change in binding of human HNF4A to DNA, primary screen, biochemical, fluorescence polarization, FITC-DNA; 1 h; Hepatocyte nuclear factor 4-alpha (Homo sapiens), P41235; activity change, % at 10 µM; actives 0.3% (n = 360,000); in the data active = activity change above about 30%, passing the limit was not always enough;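 note: controls were the assay level and a saturating level of protein; the project sought stronger binding though the title names inhibitors; some compounds called inactive have numbers as strong as hits; positive values seem to mean higher polarization but the record does not say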
# Target sequence (P41235 whole entry, looked up): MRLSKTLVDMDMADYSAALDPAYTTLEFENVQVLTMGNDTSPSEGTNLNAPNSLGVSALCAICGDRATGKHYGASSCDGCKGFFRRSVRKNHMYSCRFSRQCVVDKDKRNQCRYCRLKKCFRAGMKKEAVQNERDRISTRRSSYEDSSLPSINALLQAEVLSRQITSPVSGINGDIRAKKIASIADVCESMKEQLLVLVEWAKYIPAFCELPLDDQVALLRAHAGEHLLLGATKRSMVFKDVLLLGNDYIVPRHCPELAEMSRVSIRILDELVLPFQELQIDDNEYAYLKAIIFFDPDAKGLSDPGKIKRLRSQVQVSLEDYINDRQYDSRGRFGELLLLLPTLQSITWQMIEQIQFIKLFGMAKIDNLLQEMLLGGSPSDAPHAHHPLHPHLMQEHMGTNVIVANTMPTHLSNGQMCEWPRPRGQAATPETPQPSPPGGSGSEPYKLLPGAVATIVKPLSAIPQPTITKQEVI
# RanGTP-Imp inh – inhibitors of RanGTP-importin-beta interaction, primary screen, biochemical, FRET, CFP-Ran, YFP-importin-beta, homogeneous | Ran GTPase (GTP-bound) - importin-beta complex | cell-free CFP-Ran/YFP-importin-beta FRET ratio | inhibition, % (concentration not given with the values) | actives 1.1% (n = 300,000) | AID 2216, 2009;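 active = most replicates above 15%; inconclusive = exactly half above 15%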;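 note: 0% = DMSO wells and 100% = Ran loaded with GDP instead of GTP; wells of about 40 µL received 100 nL stock; the first replicate is given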
# LANA-H2B inh – blockers of LANA interaction with H2A/H2B – biochemical, FP readout, HTS, primary screen. cell-free LANA-H2A/H2B peptide, fluorescence polarization. inhibition, % (concentration not given with the values). actives 0.6% (n = 320,000); in the data active = inhibition mostly above about 10%, no sharp cut-off; inactive = mostly below about 6.7%;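 note: stock transfer was 7.5 nL into about 10 µL; 0% = median of vehicle wells and 100% = median of positive control wells; one replicate is shown; the record names a cut of 25% in any replicate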
# Vif A3G – inhibitors of Vif binding to APOBEC3G peptide, primary screen, biochemical, TR-FRET, GST-Vif 1-94, biotin-A3G peptide, dose response retest (AID 1117319). actives 0.57% (n = 260,000). one-dose inhibition, %; IC50 in µM for titrated hits. TR-FRET GST-Vif / biotin-A3G peptide binding; higher % means a stronger effect; test concentration not given here; strong numbers were not always called active;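 active = above the screen mean plus three standard deviations and confirmed in dose response; inconclusive = results disagree or hit not tested in dose response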;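 note: Vif residues 1-94 fused to GST binding biotinylated APOBEC3G peptide 110-148; 0% = full assay without inhibitor and 100% = GST in place of GST-Vif; retest series ran down from 100 µM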
# * = called active by the depositor; ? = inconclusive; . = no result given.
SMILES,Beta2AR agonist,Calb FLC,ALR inh,HNF4A DNA FP,RanGTP-Imp inh,LANA-H2B inh,Vif A3G
COc1ccccc1NC(=O)C1=C(C)Nc2nc3ccccc3n2C1c1cccs1 (configuration not stated),7,6,0,-0.2,-1.2,2.3,-5%
CCNS(=O)(=O)c1ccc(OC)c(C)c1,-1,3,-8,0.4,-3.2,-6.6,-1%
CCn1c2ccccc2c2cc(NC(=O)CNC)ccc21,19,-1,19,0.3,19*,4.9,-4%
CC1(C)c2cc(O)ccc2OC1N1CCOCC1 (configuration not stated),-3,0,99*,0.5,0.9,-1.6,.
O=C(Nc1cccc(Cl)c1)c1cnccn1,3,3,-13,-0.7,5.4,0.3,.
CC(C)(CNC(=O)CCNC(=O)c1ccc(Br)cc1)N1CCOCC1,6,-3,-11,0.9,1.1,-4.5,-3%
Cc1cccc(N(CC(=O)N2CCOCC2)S(C)(=O)=O)c1,6,4,-7,-2.0,3.1,2.8,-3%
CCCCC(=O)Nc1ccc(C(=O)N2CCN(C)CC2)cc1,-2,-1,.,-2.1,?,0.4,-1%
CCOc1c(Nc2cccc(Cl)c2)c(=O)c1=O,10,4,.,-1.7,-0.5,-1.7,14%
COC(=O)[C@@H](NC(=O)CCc1nnc(-c2ccsc2)o1)C(C)C,-5,1,3,4.4,?,1.2,13%
CCN(CC)CCn1c2c(c(SCC(=O)NCc3ccccc3)nc1=O)CCCC2,2,-3,0,-2.4,3.0,9.5,6%
Cc1[nH]c2ccccc2c1/C=N/Nc1ccccn1,.,-8,.,.,1.7,.,32%

# Record cards (already shown):
# Profile of CCCCC(=O)Nc1ccc(C(=O)N2CCN(C)CC2)cc1 = Beta2AR agonist = -2; Calb FLC = -1; ALR inh = .; HNF4A DNA FP = -2.1; RanGTP-Imp inh = ?; LANA-H2B inh = 0.4; Vif A3G = -1%
# Profile of Cc1cccc(N(CC(=O)N2CCOCC2)S(C)(=O)=O)c1 = Beta2AR agonist = 6; Calb FLC = 4; ALR inh = -7; HNF4A DNA FP = -2.0; RanGTP-Imp inh = 3.1; LANA-H2B inh = 2.8; Vif A3G = -3%
# Profile of CC1(C)c2cc(O)ccc2OC1N1CCOCC1 (configuration not stated) = Beta2AR agonist = -3; Calb FLC = 0; ALR inh = 99*; HNF4A DNA FP = 0.5; RanGTP-Imp inh = 0.9; LANA-H2B inh = -1.6; Vif A3G = .

# (listing goes on)
SMILES,Beta2AR agonist,Calb FLC,ALR inh,HNF4A DNA FP,RanGTP-Imp inh,LANA-H2B inh,Vif A3G
O=C1C=C(O)CC(c2cccs2)C1 (configuration not stated),3,-3,22,-5.2,.,-4.1,15%
CCOC(=O)C1CCN(c2nc3ccccc3nc2C(C#N)C(=O)OCCOC)CC1 (configuration not stated),2,3,3,1.3,?,-5.1,2%
CN1CCN(C(=O)C2CCCN(S(=O)(=O)c3ccc(Cl)cc3)C2)CC1 (configuration not stated),7,-8,3,3.4,-1.1,-1.0,.
CC1=C(C(=O)OCCOC(C)C)C(c2cccc3ccccc23)NC(=O)N1 (configuration not stated),-5,8,-15,-7.0,1.2,-1.6,.
Cc1ccc(C(C)(C)C)cc1S(=O)(=O)NC(=O)c1ccccc1,-4,0,1,-3.9,-0.6,-7.1,3%
Cc1ccc(CNC(=O)CCC2CCCN(Cc3c(C)nn(C(C)C)c3C)C2)o1 (configuration not stated),-2,0,1,1.2,-0.5,-4.9,7%
Cc1ccc(Oc2ncccc2NC(=O)CC(CC(=O)O)c2ccccc2)c2c1CCC2 (configuration not stated),3,1,-11,5.5,-0.6,2.0,-2%
COc1cc(Cl)c(C)cc1NC(=O)CN1CCN(C(=O)C2CC2)CC1,1,.,1,-5.6,.,6.1,.
Cc1ccc(-c2noc(CNCCCN(C)C)n2)cc1,10,-10,-1,0.8,-3.9,6.7,5%
COC(=O)c1ccc2c(=O)n(Cc3ccco3)c(SCC(=O)Nc3cc(C)on3)nc2c1,-2,-13,21,3.0,-3.5,-2.4,-2%
O=C(CN1CCC(Cc2ccccc2)CC1)NC(=O)NCc1ccccc1,4,24,-11,-4.9,-2.9,-4.2,.
O=Nc1ccc(O)c2ncccc12,-6,-11,50,0.1,-4.0,8.4,25%
N#Cc1c(-c2ccccc2)nc(N2CCCCCC2)[nH]c1=O,1,50,-9,9.0,1.0,7.1,?
CCOc1ccc(N(C)S(=O)(=O)c2ccc(C)c(C(=O)Nc3nnc(C4CC4)s3)c2)cc1,-1,.,0,-1.0,.,-5.2,.
CCOC(=O)C1CCCN(C(=O)c2cc(S(=O)(=O)N3CCCCCC3)ccc2OC)C1 (configuration not stated),4,.,.,2.0,.,2.6,2%
c1ccc(OCCN2C3=NCCN3c3ccccc32)cc1,-8,-2,33,0.3,4.1,-3.3,2%
Nc1ccc(C(=O)OCc2nc3cc4ccccc4cc3[nH]2)cc1,-4,-28,-37,0.0,?,1.3,.
Cc1ccc(NS(=O)(=O)c2ccc3c(c2)NC(=O)CO3)c(C)c1,4,-1,0,2.1,5.7,0.1,.
Cc1cc(OCc2nnc(SC(C)C(=O)O)n2-c2ccccc2)ccc1Cl (configuration not stated),-3,-6,22,2.6,-2.0,-1.3,.
CC(C)COP(=O)(c1ccc(N(C)C)cc1)C(Nc1ccccc1)c1cccnc1 (configuration not stated),-6,31,18,4.7,0.9,-1.7,.
CC1(O)C(=O)C=C2C=C(c3ccc(C#N)cc3)OC=C2C1=O (configuration not stated),.,5,-2,.,?,-0.8,.
CCCCN(C(=O)c1cccc(S(=O)(=O)N2CC(C)OC(C)C2)c1)c1c(N)n(CC(C)C)c(=O)[nH]c1=O (configuration not stated),-2,-2,3,1.0,5.5,-2.6,.
O=C(OCc1ccccc1)/C(=C/c1cccc2ccccc12)NC(=O)c1ccccc1,8,1,-4,0.7,0.5,-6.1,.
N#CC(C(=O)NCCc1ccccc1)c1nc2ccccc2nc1N1CCCCC1 (configuration not stated),8,6,-13,11,37*,6.6,1%
COc1ccc(CCNc2nc(-c3cccc(NC(C)=O)c3)cs2)cc1OC,8,-2,?,-1.0,3.2,-1.0,1%
CCC(Sc1nc2ccccc2[nH]1)C(=O)Nc1ccc(NC(C)=O)cc1 (configuration not stated),9,-9,-3,4.3,-0.5,-9.7,-1%
COc1cccc(NC(=O)c2cc3ccccc3cc2OC)c1,8,18,-8,0.4,1.2,-1.1,.
Cc1occc1C(=O)N/N=C/C(Br)=C\c1ccccc1,25,-16,.,1.8,-1.8,3.6,-2%
CC1=NNC(=O)C1Cc1ccccc1 (configuration not stated),-8,7,65,-1.6,0.0,-0.3,.
COCC(=O)NCCNc1nc2ccc(C)cc2cc1C,-2,4,-6,-3.0,4.5,0.8,-6%
O=C(Cn1cc2c(n1)CCCCC2)Nc1ccccc1Br,4,8,.,-2.9,0.3,-4.9,-13%
CC1CCN(S(=O)(=O)c2ccc(NC(=O)[C@@H]3CCCC[C@@H]3C(=O)O)cc2)CC1,2,-2,-8,-2.4,3.2,-2.8,.
CCCN(CCC)CCNC(=O)c1cc2c(=O)n(CC)c3ccccc3c2s1,1,1,.,5.9,-2.1,-1.7,6%
Cn1ccnc1SC(C(=O)O)c1ccccc1 (configuration not stated),0,6,-11,1.3,-0.6,0.3,.
CC(=NO)C1CCC2C3CCC4CC(=NO)CCC4(C)C3C(C)(O)CC12C (configuration not stated),24,.,.,0.0,.,.,-6%
Cc1ccc(C(=O)O/N=C/C2=C(Cl)c3ccccc3CC2)cc1,-9,-3,.,3.9,1.9,-1.7,2%
CCC(C)C(NC(=O)c1ccccc1NC(=O)c1ccc(OC)cc1)C(=O)NCc1ccco1 (configuration not stated),16,38,0,-0.5,1.7,0.6,0%
CC(=O)c1ccc(NC(=O)CSc2nc(C)cc(C)c2C(N)=O)cc1,-5,-4,-8,0.9,7.2,5.9,4%
Cc1c(Cl)cccc1N1C(=O)CC(NNC(=O)c2ccc3c(c2)OCO3)C1=O (configuration not stated),-2,.,.,0.0,.,-0.3,.
CCC[C@@H](CN1CCC[C@H]1CN1C(N)=NC[C@@H]1Cc1ccccc1)N1C[C@@H](Cc2ccccc2)N(CCc2ccc(Cl)c(Cl)c2)C1=N,-3,.,-9,6.2,.,-10,.
CC[C@]12c3[nH]c4ccc(Cl)cc4c3CCN1C(=O)[C@@H](CC(=O)NCCCn1ccnc1)C[C@@H]2C(=O)N1CCN(C(=O)c2ccco2)CC1,-6,.,.,-0.8,.,.,6%
Cc1cc(Br)ccc1SCC(=O)OCC(O)=C(C#N)c1nc2ccccc2[nH]1,8,.,.,19,.,.,-4%
Cc1cc(NC(=O)CSc2ccccn2)cc(NC(=O)CSc2ccccn2)c1,-3,16,-2,-1.3,4.6,0.0,.
CN1C(=O)Cc2cc(S(=O)(=O)Nc3ccc(N4CCOCC4)cc3)ccc21,-27,3,39,1.1,0.2,4.1,.
O=C1C2C3c4ccccc4C(c4ccccc43)C2c2nc3ccccc3n21 (configuration not stated),-5,-14,-19,0.2,-1.7,-2.7,0%
O=C(N/C(=C/c1ccc(Br)cc1)C(=O)N1CCCC1)c1cccs1,3,2,-6,-0.1,2.9,-1.9,.
CC(Sc1nc2ccc(C(=O)c3ccccc3)cc2[nH]1)C(=O)O (configuration not stated),-13,-4,-13,0.6,-0.4,-7.7,.
Cc1ccc(C)c(NC(=O)CN(C)C(=O)c2cccc(S(=O)(=O)N3CCCC3)c2)c1,-5,.,.,-1.7,.,.,8%
CN(C)S(=O)(=O)N1CCN(S(=O)(=O)c2ccc(F)cc2)CC1,-1,-13,0,3.1,-3.7,0.9,-3%
CCc1c(C)nc2cc(-c3cccs3)[nH]n2c1=O,-25,-22,.,4.2,-0.2,.,-3%
Fc1ccccc1CSCc1nc2ccccc2[nH]1,-9,8,-5,1.5,8.7,-4.4,-5%
CC1(C)CC(=O)C2=C(C1)Oc1ncn(CCCn3ccnc3)c(=N)c1C2c1ccccc1 (configuration not stated),-4,7,-3,-2.9,-2.5,-1.7,10%
CCOC(=O)c1ccc2c(c1)n(CC)c(/C=C/Nc1ccccc1)[n+]2CC,0,-1,.,2.0,3.3,2.4,1%
CCOC(=O)CNC(=O)c1c(C)nn(-c2ccccc2)c1Cl,1,35,-18,-2.1,-0.3,3.2,-6%
COc1ccc(NC(=O)CN(C)C(=O)c2cc(-c3cccs3)nn2-c2ccccc2)cc1,14,12,-50,-0.5,-0.6,7.9,-6%
CC1(C)Cc2cccc(OCC(N)=O)c2O1,7,-4,-7,1.9,4.3,-0.4,-4%
COc1ccc(C(=O)c2ccc([N+](=O)[O-])cc2Cl)cc1,6,-1,-28,1.0,?,0.0,.
O=S(=O)(/N=C(/Nc1ccccc1)c1ccccc1O)c1ccccc1,14,-10,-14,-0.4,?,2.2,-1%

# Structural class, the entries above with two or more sulfur atoms
SMILES,Beta2AR agonist,Calb FLC,ALR inh,HNF4A DNA FP,RanGTP-Imp inh,LANA-H2B inh,Vif A3G
CCOc1ccc(N(C)S(=O)(=O)c2ccc(C)c(C(=O)Nc3nnc(C4CC4)s3)c2)cc1,-1,.,0,-1.0,.,-5.2,.
Cc1cc(NC(=O)CSc2ccccn2)cc(NC(=O)CSc2ccccn2)c1,-3,16,-2,-1.3,4.6,0.0,.
CN(C)S(=O)(=O)N1CCN(S(=O)(=O)c2ccc(F)cc2)CC1,-1,-13,0,3.1,-3.7,0.9,-3%
